VACV Venus inh – vaccinia inhibition (Venus reporter) | Vaccinia virus Venus reporter expression, fluorescence | 0.46% of 330,000 active | AID 720580 | Potency, µM (doses to about 36.5 µM), for inactives: at the highest dose activity change, negative = inhibition, usual class: inhibitors; active means well fitted inhibition curve with a large enough effect; inconclusive means small, poorly fitted or top-dose-only effect; inactive means no such curve, though single readings can be large or run the other way; tested in A549 cells; further: nearly all actives have a fitted effect of over 30% in size; inactives centre near -10
Vaccinia mCherry – inhibitors of vaccinia virus infection (mCherry reporter signal); Vaccinia virus mCherry reporter infection, fluorescence; about a quarter of the inactives have no number; Potency, µM (doses to about 36.5 µM), for inactives: top-dose activity change, negative = inhibition, usual class: inhibitors; AID 720579; 0.63% of 310,000 active; active = well fitted inhibition curve with a large enough effect; inconclusive = small, poorly fitted or top-dose-only effect; inactive = no such curve, though single readings can be large or run the other way; tested in A549 cells; further: nearly all actives have a fitted effect of over 35% in size; inactives centre near -10
Active calls of the source: *; i = inactive; ? = inconclusive; / = no result given; & = joins results of further samples; [ ] = dose if it differs, or a comment. On the % scale 0 is the no-effect control and ±100 the full control effect; potency means the concentration at half of the fitted maximal effect. This is a random part of the collection; any-hit rate near 0.86%.

Preview:
SMILES	VACV Venus inh	Vaccinia mCherry
CC1=C(/C=N/Nc2ccc([N+](=O)[O-])cc2[N+](=O)[O-])C(C)(C)CCC1	-14%	-9%
COc1ccc(N(Cc2cccs2)C(=O)COc2cc(C)c(Cl)c(C)c2)cc1	-4%	-13%
COc1ccc(CCNC(=O)Cn2nnc(-c3ccc(OC)c(OC)c3)n2)cc1OC	-4%	-1%
CCOc1ccc(N2CC(C(=O)Nc3c(C)n(C)n(-c4ccccc4)c3=O)CC2=O)cc1 (stereo not drawn)	-27%	-6%
COc1ccccc1NC(=O)C(=O)NCC(c1cccnc1)N1CCc2ccccc2C1 (stereo not drawn)	-17%	-17%
CN(C)S(=O)(=O)Nc1ccc(Oc2ccccc2)cc1	-3%	-14%
COc1ccc(C(CNC(=O)COc2cc(C)cc(C)c2)N2CCCCC2)cc1 (stereo not drawn)	-17%	-17%
Cc1cc(NC(=O)CCNS(=O)(=O)c2cccc3nsnc23)ccc1Br	-14%	-12%
O=C(Cc1ccc(Cl)cc1)N1CCOCC1	1%	-15%
CCN1CCN(C(=O)N[C@@H](C(=O)N[C@@H]2C(=O)N3C(C(=O)O)=C(CSc4nnnn4C)CS[C@H]23)c2ccc(O)cc2)C(=O)C1=O	-10%&-9%	0%&-10%
Cc1cc(C)n(/N=C/c2ccc(C(C)C)cc2)c(=O)c1C#N	-12%	i
O=C(CCN1C(=O)c2ccccc2C1=O)c1cnc[nH]1	-4%	3%
Cc1[nH]nc(NCCO)c1[N+](=O)[O-]	-5%	i

All compounds of this part, from the first entry:
SMILES	VACV Venus inh	Vaccinia mCherry
CC1=C(/C=N/Nc2ccc([N+](=O)[O-])cc2[N+](=O)[O-])C(C)(C)CCC1	-14%	-9%
COc1ccc(N(Cc2cccs2)C(=O)COc2cc(C)c(Cl)c(C)c2)cc1	-4%	-13%
COc1ccc(CCNC(=O)Cn2nnc(-c3ccc(OC)c(OC)c3)n2)cc1OC	-4%	-1%
CCOc1ccc(N2CC(C(=O)Nc3c(C)n(C)n(-c4ccccc4)c3=O)CC2=O)cc1 (stereo not drawn)	-27%	-6%
COc1ccccc1NC(=O)C(=O)NCC(c1cccnc1)N1CCc2ccccc2C1 (stereo not drawn)	-17%	-17%
CN(C)S(=O)(=O)Nc1ccc(Oc2ccccc2)cc1	-3%	-14%
COc1ccc(C(CNC(=O)COc2cc(C)cc(C)c2)N2CCCCC2)cc1 (stereo not drawn)	-17%	-17%
Cc1cc(NC(=O)CCNS(=O)(=O)c2cccc3nsnc23)ccc1Br	-14%	-12%
O=C(Cc1ccc(Cl)cc1)N1CCOCC1	1%	-15%
CCN1CCN(C(=O)N[C@@H](C(=O)N[C@@H]2C(=O)N3C(C(=O)O)=C(CSc4nnnn4C)CS[C@H]23)c2ccc(O)cc2)C(=O)C1=O	-10%&-9%	0%&-10%
Cc1cc(C)n(/N=C/c2ccc(C(C)C)cc2)c(=O)c1C#N	-12%	i
O=C(CCN1C(=O)c2ccccc2C1=O)c1cnc[nH]1	-4%	3%
Cc1[nH]nc(NCCO)c1[N+](=O)[O-]	-5%	i
CN(CC(=O)Nc1ccccc1Br)C(=O)c1cccc([N+](=O)[O-])c1	-2%	-16%
O=C(O)c1ccc2nc(-c3cc4cccc(O)c4oc3=O)[nH]c2c1	1%	-11%
CCOc1ccc(N=Nc2ccc(O)c3ncccc23)cc1	-15%	?
O=C1CCN(S(=O)(=O)c2cccs2)c2ccc(C(F)(F)F)cc2N1	-5%	-13%
CC1=CC2C(CC1=O)C(C)=CCC2C(C)C (stereo not drawn)	2%	-7%
Cc1cccc(-n2c(N)c(-c3nc4ccccc4n3C)c3nc4ccccc4nc32)c1	-2%	-12%
Cc1ccc(CSc2ccc(-c3cccs3)nn2)cc1	-8%&1%	-8%&-8%
COC(=O)C1=C(C)N=C2SC(C)C(=O)N2C1c1ccc(C(=O)OC)cc1 (stereo not drawn)	3%	2%
COc1cc(C(=O)NCC(c2ccco2)N2CCc3ccccc3C2)cc(OC)c1OC (stereo not drawn)	-12%	i
COc1cc(OC)c(C(=O)NCc2ccco2)cc1OC	-8%	i
CCC(=Cc1ccccc1OC)c1ccncc1	-16%	-12%
O=C(NCCCN1CCCC1=O)c1cc2nc(-c3ccco3)cc(C(F)(F)F)n2n1	-16%	-4%
O=S(=O)(NCC1CCCO1)c1ccc(-c2ccc(S(=O)(=O)NCC3CCCO3)cc2)cc1 (stereo not drawn)	?	?
O=C(c1ccco1)N1CCN(c2nc3c(Cl)cccc3s2)CC1	-15%	i
Cc1cc(-c2ccc(Cl)cc2)oc(=O)c1NC(=O)c1ccccc1	-19%	-24%
CCOc1ccc(OCCC(=O)OCC(=O)N2CCN(S(=O)(=O)c3ccc(C)cc3C)CC2)cc1	-8%	-3%
CN1CCCC(OC(=O)/C(C#N)=C/c2ccccc2)C1 (stereo not drawn)	-7%	i
CCN(C(=O)c1ccc2c(=O)n3c(nc2c1)CCCCC3)c1cc(C)ccc1C	-10%	-12%
Cc1cc(C)cc(OCC(=O)Nc2nc3ccc([N+](=O)[O-])cc3s2)c1	-20%	-7%
CSc1nc(C)cc(Oc2ccc(OCCOc3ccccc3)nn2)n1	-16%	-21%
CCOC(=O)C1=CNS(=O)(=O)NC1c1ccc(C(F)(F)F)cc1 (stereo not drawn)	-6%	-11%
CC(C)(C)n1nc2c(c1NC(=O)c1cccc(C(F)(F)F)c1)CS(=O)C2 (stereo not drawn)	-5%	-9%
COc1cc(C(=S)N2CCOCC2)ccc1OC(=O)c1cc([N+](=O)[O-])c(C)c([N+](=O)[O-])c1	-5%	i
COc1cc2c(cc1OC)C(C)N(C(=O)C1COc3ccccc3O1)CC2 (stereo not drawn)	-15%	/
Cc1ccc(S(=O)(=O)N2CCN(c3nc(-c4ccc(C)s4)nc4ccccc34)CC2)cc1	-16%	i
CC(C)(C)c1ccc(OCC(=O)NNC(=S)NC(=O)c2ccco2)c(Br)c1	-3%	i
CCS(=O)(=O)N1Cc2ccccc2CC1C(=O)NC(C)C12CC3CC(CC(C3)C1)C2 (stereo not drawn)	-11%	i
CCCCC1=CC2=C(c3ccco3)C(=O)C(C)(OC(=O)c3ccc(OC)cc3)C(=O)C2=CN1CCCCO (stereo not drawn)	-12%	-18%
O=C(/C=C/c1ccccc1Cl)Nc1ccncc1	-22%	/
CCC(C)[C@H](NC(=O)NCc1cccc(OC)c1)C(=O)OC (stereo partly drawn)	-7%	-12%[1.46 µM]
NC(=O)CC(NC(=O)Cc1ccc(Br)cc1)c1ccc(NCc2ccc(F)cc2)c([N+](=O)[O-])c1 (stereo not drawn)	-11%	0%
Cc1ccc(S(=O)(=O)Nc2ccc3c(c2)OCCO3)cc1C	-10%	-12%
O=C(c1ccccc1)N1CCCc2ccccc21	-6%	-16%
CC(C)(Cc1ccc(O)cc1)NC(=O)CC(=O)N=Nc1c(O)[nH]c2ccc(Br)cc12	-12%	?
C[C@H]1CC[C@@]2(O[C@H](CCO)C[C@H](O)[C@H]2O)O1	-4%	-19%
Nc1cc(S(=O)(=O)N2CCOCC2)ccc1N1CCCCC1	11%	?
N/C(=N/OC(=O)c1ccccc1F)c1nonc1N	-10%	i

(next part)
SMILES	VACV Venus inh	Vaccinia mCherry
Cc1ccccc1N1CCN(C2CCCN(C(=O)c3ccccn3)C2)CC1 (stereo not drawn)	-13%	-19%
Cc1ccccc1C(=O)NNC(=S)NC(=O)c1ccc(Cl)cc1Cl	?	-29%
CCN(CC(=O)Nc1ccccc1OC)C(=O)CC1CC2CCC1C2 (stereo not drawn)	-21%	-21%
Cc1cc(C)n2c(Nc3ccc4c(c3)OCCO4)c(CC(C)C)nc2n1	-2%	i
O=C(O)c1cc(-c2cccc(Cl)c2)nc2nc(N3CCCCC3)sc12	-18%	-15%
C[C@H]1CN([C@@H](C)CO)C(=O)c2cc(Br)cnc2O[C@@H]1CN(C)S(=O)(=O)c1cn(C)cn1	-9%	-15%
CCCCC1=CC2=C(c3ccco3)C(=O)C(C)(OC(=O)c3ccc(OC)cc3)C(=O)C2=CN1C1CC1 (stereo not drawn)	-27%	?
Cc1cc(S(=O)(=O)N(Cc2cccs2)Cc2ccccc2F)ccc1-n1cnnn1	-7%	i
COc1ccccc1/C=c1\sc2nc(-c3ccco3)nn2c1=O	-4%	i
Cc1nc(S(=O)(=O)N2CCN(c3ccccc3F)CC2)cn1C	2%	-8%
CCOc1ccc(C2NC(=O)NC(C)=C2[N+](=O)[O-])cc1OC (stereo not drawn)	-7%	i
CC(NC(=O)CN(c1cccc(C(F)(F)F)c1)S(=O)(=O)c1ccc(Cl)c([N+](=O)[O-])c1)c1ccccc1 (stereo not drawn)	-19%	?
COc1ccc(N2CCN(C(=O)c3cc(S(=O)(=O)N4CCC(C)CC4)cn3C)CC2)cc1	-23%	-19%
Cc1nonc1N1CCN(Cc2cn[nH]c2-c2ccc3c(c2)OCO3)CC1	-23%	-13%
COc1cccc(CNC(=O)COC(=O)CCc2cc(OC)c(OC)c(OC)c2)c1	-6%	-13%
CCCCCN(C(=O)CCC(=O)OCc1ccc(Cl)cc1Cl)c1c(N)n(CCCC)c(=O)[nH]c1=O	-20%	-9%
CC1CCN(C(=O)C(=O)c2cn(CC(=O)N3CCCC3)c3ccccc23)CC1	-8%	-3%
O=C(CSc1nc2c(oc3ccccc32)c(=O)n1-c1ccccc1F)Nc1ccccc1	-9%	-10%
Cc1cc(C)nc(NNC2=CC(=O)CC(C)(C)C2)n1	-7%	-21%
Cc1nccn1Cc1ccccc1	-2%	i
CCOc1ccc(S(=O)(=O)NCCC(=O)NCCCSc2ccccc2)cc1	-14%	-4%
NNc1nc(Nc2ccccc2)nc(Nc2ccccc2)n1	-9%	?
CC(=O)N1c2ccc(S(=O)(=O)NCC3CCC(C(=O)Nc4ccc(C)c(C)c4)CC3)cc2CC1C (stereo not drawn)	-28%	-19%
Cc1cc(O)c(C(C)C)cc1NC(=O)Nc1cc(Cl)ccc1Cl	2%	?
O=C(NN=C1CCCCCCC1)c1ccc2ccccc2n1	-11%	-13%
O=C(CNC(=O)C1CCCCC1)NCCCO	-2%	-13%
CC(=O)Nc1ccc(S(=O)(=O)N(C)CC(=O)OCC(=O)N2CCc3ccccc32)cc1	4%	i
CNc1c(NS(=O)(=O)c2cc(Cl)ccc2OC)c(=O)oc2ccccc12	-7%	-17%
CCC(C)n1ncn(-c2ccc(N3CCN(c4ccc(O)cc4)CC3)cc2)c1=O (stereo not drawn)	?	?
CCN(CC(=O)Nc1c(F)cccc1F)C(=O)CC1CCCC1	2%	i

The final two records of the part above come first, to join the parts:
SMILES	VACV Venus inh	Vaccinia mCherry
CCC(C)n1ncn(-c2ccc(N3CCN(c4ccc(O)cc4)CC3)cc2)c1=O (stereo not drawn)	?	?
CCN(CC(=O)Nc1c(F)cccc1F)C(=O)CC1CCCC1	2%	i
CCOc1ccc(N2C(=O)CC(Sc3nc(C)cc(C)c3C#N)C2=O)cc1 (stereo not drawn)	-8%	i
Cc1sc2nc(CSCC(=O)Nc3ccc(N4CCOCC4)cc3)[nH]c(=O)c2c1C	-7%	-4%
COc1cc2c(cc1OC)CN(C(=O)CSc1nc(C)cc(C)c1C#N)CC2	-18%	/
CCOc1ccccc1Nc1ccnc2cc(Cl)ccc12	?	i
C=CCN1C(=O)c2ccc(C(=O)N(CC)CC(=O)Nc3cc(Cl)ccc3C)cc2C1=O	-6%	i
COc1ccc(OCC(=O)NNC(=S)NC(=O)c2ccc(Br)o2)cc1	-18%	-24%
CCc1ccc(C(=O)Nc2ccc3c(c2)n(C)c(=O)n3C)cc1	-17%	-19%
COc1ccc(NC(=O)NNC(=O)COc2ccc(Cl)cc2C)cc1OC	-3%	-10%
CN(CC(=O)Nc1ccc(Cl)cc1)C(=O)Cn1[nH]c(=O)c2ccccc2c1=O	-6%	-4%
FC(F)(F)c1cccc(Cc2noc(CN3CCSCC3)n2)c1	-6%	-1%
O=c1ncccn1C1OC(CO)C(O)C1O (stereo not drawn)	-11%	26%
COc1cc(Cl)c(C)cc1NC(=O)C1CCN(c2nc3ccccc3n3cccc23)CC1	-21%	-20%
O=C(CSC(=S)N1CCOCC1)Nc1ncc2c(n1)CC(c1ccco1)CC2=O (stereo not drawn)	-12%	-3%
O=C(COc1ccc(Cl)cc1)NNC(=O)c1ccccn1	-11%	-14%
O=C(CC(=O)NC1CCCCC1)N/N=C/c1cccc2ccccc12	-13%	-17%
Cc1ccc(C(=O)C[n+]2cccc3cccc(O)c32)cc1	3%	-1%
CCOC(=O)CCP(=O)(O)C(C)(O)c1ccccc1 (stereo not drawn)	-8%	i
CCOC(=O)N1CCN(CC(=O)Nc2ccc(F)cc2)CC1	-17%	-5%
COC(=O)CN(C#N)c1nc(C)cc(C)n1	-8%	-26%
Cc1cc(C(=O)CN2C(=O)NC3(CCCC3)C2=O)c(C)n1-c1ccc2c(c1)OCO2	-9%	i
O=C(NC1CC(=O)N(c2cccc(F)c2)C1)C1CCCC1 (stereo not drawn)	-13%	-7%
COc1ccc(-n2c(Cc3cccn3C)nnc2SCC(=O)NCc2ccco2)cc1	-5%	3%
CCCCCC(=O)N1C[C@H](n2cc(C3CC3)nn2)[C@@H](O)C[C@@H]1c1ccccc1	-1%	-14%
CC(=O)Nc1ccc(N2S(=O)(=O)c3ccccc3S2(=O)=O)cc1	?	/
C[C@@H]1CN([C@@H](C)CO)C(=O)CCCn2nncc2CO[C@H]1CN(C)Cc1ccc(Cl)c(Cl)c1	-16%	i
Cc1cccc(CCN(C(=O)c2csnn2)C(C(=O)NC2CCCC2)c2ccco2)c1 (stereo not drawn)	-12%	-5%
O=C(Cc1c(F)cccc1Cl)Nc1ccncc1	-6%	-14%
CCN(CC)c1cc(C)c2cc(NC(=O)c3cccc(OC)c3OC)ccc2n1	-21%	-22%
Cc1ccc2c(c1)c1c3n2CCN(C(=O)CN2CCN(C)CC2)C3CCC1 (stereo not drawn)	-13%	-25%

Assay outcomes from PubChem BioAssay.
